gsp antag: gsp mutant antagonism | AID 624288 | Potency, µM (titrated, usually from 76.9 µM), without a hit: at the top dose activity change, negative = inhibition, actives largely listed as inhibitors | gsp-mutant cells, cAMP HTRF, 30 min; control for the full effect not named in the record | actives 0.4% (n = 340,000); active = falling curve of any shape with a large fitted effect; inconclusive = falling curve, mostly with a smaller effect; inactive = flat or rising curve; cell line not stated here;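 also: intracellular cAMP measured with PDE inhibitor Ro 20-1724 present during compound exposure; potency is read from the fitted curve at half-maximal effect; % is scaled to controls: 0 for no effect and ±100 for the full control effect; nearly all actives have a fitted effect of over 65% in size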
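Cells, 2000/well, grown 16–24 h in DMEM 10% FBS with 0.5 mg/ml G418, then compounds plus […] (300 uM addition stock), 30 min at 37C. cAMP read by HTRF (cAMP-d2 and anti-cAMP antibody-K in lysis buffer) after 30 min RT.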
D2 agonist: agonists of human D2 dopamine receptor (beta-arrestin); P14416; DiscoveRx PathHunter D2 beta-arrestin, luminescence, 90 min; 100% = 57 uM dopamine signal; activation, % (test concentration not listed); actives 0.084% (n = 360,000); in the data active = activation above about 40%; inconclusive = about 15% to 40%; inactive = below about 15%; also: compound concentration not given in the record; the text of the record calls up to 30% inactive
Target sequence (P14416 whole entry, looked up): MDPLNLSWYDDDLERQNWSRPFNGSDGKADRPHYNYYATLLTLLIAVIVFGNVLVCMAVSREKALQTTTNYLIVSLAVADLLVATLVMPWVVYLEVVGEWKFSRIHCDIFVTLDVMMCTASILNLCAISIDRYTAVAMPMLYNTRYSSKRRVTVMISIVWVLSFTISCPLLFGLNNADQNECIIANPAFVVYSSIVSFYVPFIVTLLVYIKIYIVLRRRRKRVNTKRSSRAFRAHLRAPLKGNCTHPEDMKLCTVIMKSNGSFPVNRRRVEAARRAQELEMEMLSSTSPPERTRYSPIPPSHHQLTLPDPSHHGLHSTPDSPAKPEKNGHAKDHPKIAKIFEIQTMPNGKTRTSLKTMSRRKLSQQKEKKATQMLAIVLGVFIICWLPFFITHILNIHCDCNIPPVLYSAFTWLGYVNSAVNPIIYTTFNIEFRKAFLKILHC
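DiscoveRx PathHunter D2 beta-arrestin cells (2,100/well) attached overnight, then compound-stimulated 90 min at 37 C in HBSS/10 mM HEPES/0.1% Tween-20 buffer; beta-galactosidase complementation read by luminescence after 1 h at ambient temperature. Dopamine 57 uM final (EC100) as control.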
gsp agonist: agonists of gsp mutant (McCune-Albright syndrome); gsp mutant cells, cAMP HTRF, 30 min; control for the full effect not named in the record; Potency, µM (highest dose often 76.9 µM), without a hit: at the highest dose activation (cAMP increase), actives largely listed as activators; actives 0.13% (n = 340,000); active = well fitted activation curve with a large enough effect; inconclusive = small, poorly fitted or top-dose-only effect, or another doubt; inactive = no such curve, though single readings can be large or run the other way; cell line not stated here;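 also: phosphodiesterase inhibitor Ro 20-1724 added with compounds to block cAMP breakdown; potency is read from the fitted curve at half-maximal effect; nearly all actives have a fitted effect of over 60% in size; about a fifth of the inactives were tested at one dose only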
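Cells in DMEM/10% FBS with G418 were pretreated with compounds in DMSO plus […] (300 uM stock) for 30 min at 37C. cAMP was measured by HTRF (cAMP-d2 plus anti-cAMP antibody-K) after 30 min at room temperature.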
ClpP mod: qHTS Assay for Activators of ClpP; Potency, µM (doses to about 57.5 µM), for the others: at the highest dose activity change, negative = active; ATP-dependent Clp protease proteolytic subunit (Bacillus subtilis (strain 168)), P80244; AID 651965, 2013; purified B. subtilis ClpP, FRET peptide cleavage, 20 min; actives 1.9% (n = 340,000); active = well fitted falling curve with a large enough effect; inconclusive = small, poorly fitted or top-dose-only effect; inactive = no such curve, though single readings can be large or run the other way; also: potency is read from the fitted curve at half-maximal effect; the source files actives as falling curves though it sought activators and does not explain the sign; nearly all actives have a fitted effect of over 65% in size; many hits overshoot -100%
Target sequence (P80244 whole entry, looked up): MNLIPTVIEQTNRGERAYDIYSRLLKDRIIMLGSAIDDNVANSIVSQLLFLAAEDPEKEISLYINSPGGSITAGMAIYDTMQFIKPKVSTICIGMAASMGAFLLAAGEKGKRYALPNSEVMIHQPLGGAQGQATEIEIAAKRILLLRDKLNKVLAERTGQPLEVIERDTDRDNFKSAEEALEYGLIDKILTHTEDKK
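ClpP 10 microg/mL final, pH 8 Tris/KCl buffer with BSA, glycerol, Tween-20; compound pinned in; FRET-FV substrate; RT 20 min; Ex320/Em430; ΔFRET vs ADEP 5.8 microM, DMSO, no enzyme.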
PINK1 modulator: changes PINK1 expression; PINK1 immunofluorescence, high-content cytometry, 24 h; Potency, µM (series often up to 76.6 µM), inactives show at the top dose activation (PINK1 increase), actives largely listed as activators; actives 0.2% (n = 410,000); active = well fitted activation curve with a large enough effect; inconclusive = small, poorly fitted or top-dose-only effect; inactive = flat fitted curve, though single readings scatter; cell line not stated here;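 also: potency is read from the fitted curve at half-maximal effect; % of control where 0% means no effect; nearly all actives have a fitted effect of over 65% in size; a mitochondrial uncoupler was the plate control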
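PINK1 protein level read as immunofluorescence by microplate cytometer in a fixed, stained stable cell line after 24 h exposure to five compound concentrations, with CCCP as control.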
Menin-MLL FL inh: displaces fluorescein MLL peptide from human menin. Fluorescence polarization, fluorescein-MLL peptide displacement from menin. FP activity change, % at 61.4 µM. 290,000 tested, under 10 active. AID 1766; inconclusive = falling polarisation curve, or a change in total fluorescence; inactive = total fluorescence flat and polarisation flat or rising; no compound was filed as active; the % refers to the polarisation; negative = inhibition;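 also: % of control where 0% means no effect; inhibitors lower the polarisation; unlabelled MLL peptide was the positive control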
Sfp inh: blocks B. subtilis Sfp PPTase activity; Q9F4F7; Biochemical Sfp PPTase activity, qHTS; Potency, µM, for the others: max response, negative = inhibition, most hits filed as inhibitors; actives 3.5% (n = 310,000); active = well fitted inhibition curve with a large enough effect; inconclusive = small, poorly fitted or top-dose-only effect, or another doubt; inactive = no such curve, though single readings can be large or run the other way;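 also: the enzyme is Sfp with the accession as filed and its product quenches rhodamine fluorescence; potency is read from the fitted curve at half-maximal effect; 0% = enzyme reaction without inhibitor and -100% = no enzyme wells; top concentration of the series not given in the record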
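Fluorescence-quenching assay with 15 nM Sfp, 5 uM rhodamine-CoA and 12.5 uM BHQ-2-labelled ybbR peptide in pH 7.6 Hepes/MgCl2 buffer. Enzyme was pre-incubated with compound for 15 min at room temperature. Rate was taken from the 30-min fluorescence change (525/598 nm).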
Numbers without * were called inactive; ? = inconclusive; · = no result given; & = joins results of further samples; [ ] = another dose, or the depositor's remark.

SMILES	gsp antag	D2 agonist	gsp agonist	ClpP mod	PINK1 modulator	Menin-MLL FL inh	Sfp inh
CCn1ncc(C2=NOC(C(=O)Nc3ccc(C)cc3)C2)c1C (stereo not drawn)	0.3%	0.5	-2.8%	-0.8%	-0.2%	-0.2	7.8%
CCCN(CCO)C1CCN(CCc2ccccc2)CC1	14.7%	-3.9	-4.6%	1.2%	0.8%	-4.2	6.1%
CCN(C(=O)COC(=O)/C=C/c1c(C)nn(-c2ccccc2)c1C)c1c(N)n(Cc2ccccc2)c(=O)[nH]c1=O	-0.5%	-4.0	13.5%	-5.3%	1.3%	·	·
COc1ccc(CC(=O)Nc2c(C(=O)N3CCN(c4ncccn4)CC3)oc3ccccc23)cc1OC	-2.6%	3.8	3.4%	-2.7%	-1.5%	0.1	13.6%
CCN1CC(C)(C)N(C(=O)c2ccccc2)CC1(C)C	6.9%	0.0	6.7%	-0.3%	-2.7%	·	·
COc1ccc(Br)cc1CNC(=O)CN1C(=O)C(c2ccccc2)Oc2cccnc21 (stereo not drawn)	-11.6%	-3.9	?	1.4%	8.0%	10.6	5.6%
Cc1cccc(C(=O)OCc2cncs2)c1	3.0%	0.9	22.0%	·	-1.2%	0.5	5.7%
CCOC(=O)c1c(-c2cccs2)csc1NC(=O)c1ccncc1	-19.9%	-2.6	-37.7%	2.0%	4.0%	0.9	12.3%
COc1ccc(-c2csc(N(CCCN(C)C)C(=O)c3ccc(F)cc3)n2)cc1	11.4%	0.9	1.9%[15.4 µM]	3.1%	0.2%	-5.6	3.8%
CCC(Sc1ccc2nnc(CCNS(=O)(=O)c3ccc(OC)cc3)n2n1)C(=O)OC (stereo not drawn)	-8.8%	3.0	15.9%	-5.0%&-4.9%	0.0%&0.9%	-0.9	7.2%
COCCNc1nc2cc(-c3ccccc3OC)sc2c(=O)n1C	·	3.8	·	5.2%	-0.4%	·	·
CS(=O)(=O)Nc1ccc(C2=NN(S(=O)(=O)c3ccc(F)cc3)C(c3ccco3)C2)cc1 (stereo not drawn)	?	-7.9	-9.3%	-9.4%	5.0%	17.0	50.1µM*
NC(N)=NCCCC(NC(=O)c1ccccc1)C(=O)Nc1ccc([N+](=O)[O-])cc1 (stereo not drawn)	6.7%	-5.1	·	0.9%	0.4%	·	·
CCCN(CCC(=O)Nc1cc(OC)cc(OC)c1)CC1CC1	0.7%	0.3	-46.3%[inhibitor]	34.5%	0.8%	-8.2	?
O=C(/C=C/Nc1ccc(Oc2ccccc2)cc1)c1ccco1	-11.0%	1.2	7.0%	·	5.0%	4.0	50.1µM*
O=C(OCc1ccc(Br)cc1)c1cccc(S(=O)(=O)N2CCCC2)c1	-22.9%	-5.5	4.6%[15.4 µM]	-17.2%	-0.1%	·	·
Cc1c(Nc2nc3ccccc3nc2NS(=O)(=O)c2cccs2)c(=O)n(-c2ccccc2)n1C	-11.2%	-3.4	-39.3%[inhibitor]	-0.5%	1.4%[38.3 µM]	6.3	24.6%
O=C(O)c1ccccc1C(=O)c1ccc(Cl)cc1	6.0%	-0.7	-20.5%	1.9%	2.2%	2.4	16.3%
CC(=O)c1sc(NC(=O)C(C)(C)C)nc1C	18.2%	-0.6	6.0%	1.3%	1.4%	3.0	2.4%
CSc1nccc(-c2cc(Cl)sc2Cl)n1	-8.1%	-2.9	?	-0.5%	2.7%	-0.6	-1.4%
COc1cc(CNc2nc(C)c([N+](=O)[O-])c(C)c2C#N)cc(OC)c1OC	?	5.7	20.4%	-3.1%	-0.6%	·	-0.7%
CC(Oc1ccc(Cl)cc1)C(=O)Nc1nccs1 (stereo not drawn)	-6.6%	-1.0	26.6%	-0.6%	-2.7%	0.4	17.5%
COC(=O)c1ccccc1NC(=O)CSc1nc2ccsc2c(=O)n1CCCCC(=O)O	·	-2.9	-38.7%[inhibitor]	-10.0%	-0.9%	·	·
COc1ccc(CNC(=O)CNC(=O)c2sc3ccccc3c2Cl)cc1OC	-29.0%	-0.5	?	-2.7%	?	·	·
CC1Cc2ccccc2N1S(=O)(=O)c1cccc(C(=O)OCC(=O)N2CCOCC2)c1 (stereo not drawn)	-5.9%	-3.9	14.9%	·	-0.3%	·	·
Continuation.
SMILES	gsp antag	D2 agonist	gsp agonist	ClpP mod	PINK1 modulator	Menin-MLL FL inh	Sfp inh
COc1ccc(CNCc2ccc(C)cc2)c(OC)c1	-3.0%	0.6	-11.7%[15.4 µM]	1.0%	-1.0%	-3.1	-6.3%
c1ccc(CSc2nnc(-c3ccccn3)n2-c2ccccc2)cc1	5.3%	-1.2	6.4%	-1.5%	-0.8%	3.5	-2.4%
CCCCNC(=O)Nc1ccnn1C1CCCCC1	6.0%	-4.1	-56.0%[inhibitor]	1.0%	-1.0%	0.6	-10.1%
Cc1ccccc1Nc1nnc(SCC(=O)Nc2ncc(C(F)(F)F)cc2Cl)s1	9.4%	1.0	-18.1%[15.4 µM]	-4.1%	0.4%	5.5	14.3%
CC(C)C1C(=O)N(Cc2cn(CCC3OCCO3)nn2)CCS(=O)(=O)N1Cc1ccc(-c2cccc(N(C)C)c2)cc1 (stereo not drawn)	·	-2.2	-19.6%	-4.3%	2.1%	·	·
CCOc1cccc(C(=O)NC(c2ccccc2)C(C)C)c1 (stereo not drawn)	-6.4%	1.8	-2.9%	·	0.5%	1.0	-0.5%
COc1cc2oc(=O)ccc2c(OC)c1CC(O)C(C)(C)O (stereo not drawn)	0.0%	-2.9	·	-29.4%	-0.8%	-0.3	24.7%
CN(C(=O)COc1ccc2c(-c3ccccc3)cc(=O)oc2c1)C1CCS(=O)(=O)C1 (stereo not drawn)	-15.6%	3.2	?	-7.7%	0.4%	·	2.3%
COc1ccc(OC)c(/C=C/C(=O)c2ccc(Cl)cc2)c1	-0.7%	-3.9	5.4%	-1.6%	19.7%[38.3 µM]	4.2	-7.0%
CCCNC(=O)c1c(NC(=O)C2COc3ccccc3O2)sc2c1CCCC2 (stereo not drawn)	37.0%[activator]	-3.0	44.3%	1.1%	3.9%	1.9	3.0%
COc1ccc(C(=O)N/C(=C\c2ccccc2)C(=O)Nc2ccc(C(=O)NCC(=O)O)cc2)cc1	-14.8%	-3.8	11.2%	-0.6%	1.3%	0.8	6.0%
CC1(C)CN(C2CCCCC2)C(=O)[C@H]1CC(=O)Nc1ccccc1	·	-7.0	-44.1%[inhibitor]	-0.2%	0.1%	·	·
CCc1nccn1CCC(=O)N1CCCC(Nc2ccc(C(C)C)cc2)C1 (stereo not drawn)	0.8%	-8.8	-108.2%[inhibitor]	-1.9%	-2.7%	·	-3.6%
c1ccc2c(OCCCCN3CCOCC3)cccc2c1	6.6%	0.7	-0.1%[15.4 µM]	-1.8%	-0.8%	-1.2	-28.5%
COc1ccccc1Nc1nc(-c2sc(NC(=O)c3ccco3)nc2C)cs1	-10.4%	1.1	·	-1.9%	1.6%	5.0	7.0%
Cc1ccc(NS(=O)(=O)c2c(C)[nH]c(=O)[nH]c2=O)c(C)c1	8.8%	-16.8	35.3%	-1.1%&-0.7%	-1.7%&-0.3%	-21.6	0.0%
Clc1ccc(/C=C\c2nccc3c2[nH]c2ccccc23)cc1	-18.6%	0.8	8.5%[15.4 µM]	·	?	4.9	-10.9%
COC(=O)C1CCN(C(=O)CN2C(=O)NC3(CCC(C)CC3)C2=O)CC1 (stereo not drawn)	6.2%	-1.7	0.4%	·	0.2%	·	·
CC1(O)CC(c2ccc(Cl)cc2)=NN1C(=O)c1ccc([N+](=O)[O-])cc1 (stereo not drawn)	-6.3%	2.5	-6.8%[15.4 µM]	·	?	4.0	17.4%
CC(C)(CNC(=O)CC1C(=O)NCCN1Cc1cccc(F)c1F)N1CCOCC1 (stereo not drawn)	4.4%	-1.4	-10.8%	-2.4%	-0.9%	-16.9	15.3%
CN(C)C(CNC(=O)CCC(=O)c1ccc(Br)cc1)c1ccccc1 (stereo not drawn)	2.8%	-2.0	0.6%	·	0.9%	2.2	11.9%
Cc1ccnc(Sc2nc3c(c(=O)[nH]c(=O)n3C)n2CCCc2ccccc2)n1	-3.2%	2.4	7.7%	-1.8%	1.8%	3.3	16.0%
CN(C)S(=O)(=O)Oc1cccc(C(=O)Nc2cccc(Cl)c2)c1	28.2µM*	3.0	-29.8%	0.2%	-2.5%	6.6	10.0%
CC(=O)NC(c1ccc(C)cc1)c1cc([N+](=O)[O-])c2cccnc2c1O (stereo not drawn)	-19.0%	-5.8	-1.0%[15.4 µM]	·	23.0%	0.0	?
COC(=O)c1ccc(N=NN2CCCCCC2)cc1	-0.2%	-2.9	-31.7%[inhibitor]	-2.4%	1.7%	3.9	-2.1%
More results follow.
SMILES	gsp antag	D2 agonist	gsp agonist	ClpP mod	PINK1 modulator	Menin-MLL FL inh	Sfp inh
CCCNC(=O)C1(C)CCCN(Cc2ccc(C)cc2)C1 (stereo not drawn)	·	-7.2	·	0.1%	-0.1%	·	·
CN(C)c1ccc(C(=O)OCC(=O)NCCC2=CCCCC2)cc1	-17.2%	-0.3	14.5%[15.4 µM]	·	1.0%	1.9	-7.3%
COc1ccccc1C(=O)Nc1ccc(Br)cc1C	-20.3%	1.4	1.6%[15.4 µM]	·	-0.1%	5.5	-6.3%
CC(=O)NC(c1ccc(C(C)C)cc1)c1c(O)ccc2ccccc12 (stereo not drawn)	-5.8%	1.2	-4.9%[15.4 µM]	·	?	·	·
CCCCc1cc(-c2n[nH]c(=S)o2)c2ccccc2n1	?	0.2	23.5%[15.4 µM]	-2.8%	0.1%	0.0	-6.7%
CC(=O)Nc1ccc(NC(=O)C(C)Sc2n[nH]c(-c3cccs3)n2)cc1 (stereo not drawn)	3.6%	-2.8	1.8%	-11.0%	0.3%	·	·
O=C(Cc1ccc(S(=O)(=O)N2CCOCC2)s1)Nc1cc(C(F)(F)F)cc(C(F)(F)F)c1	-14.7%	3.1	-23.7%	-5.5%	?	·	·
O=C(CN1CCCC1c1cccs1)Nc1cc(S(=O)(=O)N2CCCCC2)ccc1Cl (stereo not drawn)	-4.5%	-6.8	-16.4%	-3.8%	-1.1%	·	·

An unsorted share of the library; any-hit rate near 5.1%.
